Screens as filed in PubChem.
N370S GC = qHTS Assay for Inhibitors and Activators of N370S glucocerebrosidase as a Potential Chaperone Treatment of Gaucher Disease; N370S GC spleen homogenate, 4MU-glucoside fluorescence; Potency, µM (highest dose often 59.4 µM), without a hit: at the highest dose activity change, negative = inhibition, most hits filed as inhibitors; hit rate 0.092% among 330,000; AID 2101, 2009;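 further: 0% = full enzyme activity and -100% = no enzyme basal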
KAT2A inh = qHTS Assay for Inhibitors of GCN5L2 | Potency, µM (highest dose often 58.9 µM), inactives show top-dose activity change, negative = inhibition, most hits filed as inhibitors | GCN5L2 HAT assay, ThioGlo1 CoA-SH fluorescence | hit rate 0.21% among 390,000 | AID 504327, 2011 | Histone acetyltransferase KAT2A (Homo sapiens), Q92830
Target sequence (Q92830 whole entry, looked up): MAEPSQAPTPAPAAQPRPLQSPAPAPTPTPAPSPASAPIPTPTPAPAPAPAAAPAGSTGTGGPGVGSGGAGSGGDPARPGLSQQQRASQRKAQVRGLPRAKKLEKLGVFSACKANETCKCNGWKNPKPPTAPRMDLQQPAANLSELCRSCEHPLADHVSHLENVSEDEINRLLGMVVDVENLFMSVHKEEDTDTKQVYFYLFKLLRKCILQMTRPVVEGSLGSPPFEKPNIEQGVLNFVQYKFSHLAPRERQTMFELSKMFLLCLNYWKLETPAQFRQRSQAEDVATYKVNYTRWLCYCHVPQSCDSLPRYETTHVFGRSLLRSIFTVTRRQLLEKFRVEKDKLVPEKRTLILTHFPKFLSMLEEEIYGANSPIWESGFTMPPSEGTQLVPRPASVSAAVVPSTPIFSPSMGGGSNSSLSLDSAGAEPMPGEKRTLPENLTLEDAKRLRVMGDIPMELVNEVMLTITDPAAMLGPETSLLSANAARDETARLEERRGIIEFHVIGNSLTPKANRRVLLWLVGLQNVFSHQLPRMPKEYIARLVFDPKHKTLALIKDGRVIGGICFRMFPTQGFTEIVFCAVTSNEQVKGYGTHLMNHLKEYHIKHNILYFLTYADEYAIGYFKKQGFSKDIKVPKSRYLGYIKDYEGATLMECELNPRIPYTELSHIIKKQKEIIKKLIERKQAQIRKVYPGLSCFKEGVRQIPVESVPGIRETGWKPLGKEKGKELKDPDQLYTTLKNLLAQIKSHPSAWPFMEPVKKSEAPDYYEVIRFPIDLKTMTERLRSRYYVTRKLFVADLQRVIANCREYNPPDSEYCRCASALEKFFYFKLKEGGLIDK
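Fluorescence readout, Ex340nm/Em540nm: ThioGlo1 (50uM final) reacts with free CoA thiol released as 20nM GCN5L2 acetylates H3(1-25) peptide (75uM) using acetyl-CoA (70uM). Compound and enzyme sat 15 min beforehand; 20 min room-temperature reaction.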
Active calls of the source: *; ? = inconclusive; nt = not tested or not shown; [ ] = dose if it differs, or a comment. The call rests on the fitted dose curve; in most records, active means well fitted curve in the direction sought with a large enough effect; inconclusive means small, poorly fitted or top-dose-only effect, or another doubt; inactive means no such curve, though single readings can be large; an effect the other way counts as inactive or inconclusive. Unless noted, on the % scale 0 is the no-effect control and ±100 the full control effect; potency means the concentration at half of the fitted maximal effect.

| N370S GC | KAT2A inh | SMILES |
| --- | --- | --- |
| -16% | ? | COC(=O)c1cn(CC(=O)N2CCCCC2C)c2ccccc12 (stereo not given) |
| 26% | ? | N#Cc1ccsc1NC(=O)CSc1ncnc2ccccc12 |
| nt | -4% | NC(=O)c1cc(Cl)ccc1OCC(=O)NC1CC1 |
| -12% | 1% | CC(OC(=O)c1ccc([N+](=O)[O-])s1)C(=O)Nc1ncc(Cl)cc1Cl (stereo not given) |
| -16% | -4% | COc1ccc(C2/C(=C(/O)c3ccc4c(c3)CC(C)O4)C(=O)C(=O)N2CCCn2ccnc2)cc1 (stereo not given) |
| -5% | -10% | Brc1ccc(-c2nc(N/N=C/c3cccnc3)c3ccccc3n2)cc1 |
| -2% | 0% | CC(=O)Nc1ccc(NS(=O)(=O)c2ccc3c(c2)n(C)c(=O)n3C)cc1 |
| -1% | -2% | Cc1ccc(C(=O)Nc2nc(-c3ccc([N+](=O)[O-])cc3)cs2)o1 |
| 1% | -3% | Cc1cc(C)cc(NC(=O)CN2CCC(NC(=O)Cc3ccccc3)CC2)c1 |
| 4% | -5% | CCCOc1cccc(C(=O)Nc2ccc3c(c2)OCCO3)c1 |
| nt | -3% | Cc1ccc(C(=O)NNC(=O)c2ccc(Br)s2)cc1S(=O)(=O)N1CCOCC1 |
| ? | -15% | CN(C)c1ccc(C2OC(=O)C(C)(C)C(=O)C2(C)C)cc1 (stereo not given) |
| -2% | 0% | O=C1CSC(c2ccc([N+](=O)[O-])cc2)N1c1ccccc1 (stereo not given) |
| -2% | -1% | O=C(NCC1CCN(C(=O)c2ccc([N+](=O)[O-])cc2)CC1)C(=O)Nc1ccccc1 |
| 6% | -6% | COc1ccc(N(C(=O)Cn2nnc3ccccc32)C(C(=O)NCc2ccco2)c2cccnc2)cc1 (stereo not given) |
| 19% | -12% | O=C(N/N=C/c1c[nH]c2ccccc12)c1ccc(Br)cc1 |
| nt | -4% | CCC(=O)NC(C)c1cc(Cl)c2ccccc2c1O (stereo not given) |
| 4% | -2% | COc1ccc(NC(=O)COC(=O)c2ccco2)c([N+](=O)[O-])c1 |
| 14% | -7% | O=C(Nc1ccccc1N1CCOCC1)c1cccc(F)c1 |
| -13% | -1% | CC1(C)CC(=O)C2=C(C1)NC(=O)NC2c1ccc([N+](=O)[O-])cc1 (stereo not given) |
| 10% | -11% | O=c1oc(-c2ccccc2NS(=O)(=O)c2ccc(Cl)cc2)nc2ccccc12 |
| 3% | -5% | Cc1ccc(C(=O)CSc2nc(O)cc(=O)[nH]2)cc1C |
| -1% | -2% | O=C(c1ccc(C(F)(F)F)cc1)C1CCCN(C(=O)CN2CCCC2=O)C1 (stereo not given) |
| 1% | 2% | O=C(CCCOc1ccccc1)N1CCN(S(=O)(=O)c2ccc(Cl)cc2)CC1 |
| -15% | -10% | CCc1cccc(C)c1NC(=O)CC(C)(C)CC(=O)O |
| -2% | -12% | CCc1nnc(N/N=C/c2c(F)cccc2Cl)n1N |
| -4% | 0% | COC(=O)c1sc(S(=O)(=O)NCCC(=O)O)c(C(=O)OC)c1C |
| 7% | 2% | COCCN1C(=O)c2oc3ccccc3c(=O)c2C1c1ccc(OC)c(OC)c1 (stereo not given) |
| -1% | -2% | COc1ccc(Cl)cc1NC(=O)CNc1ccccc1CN(C)C1CCCCC1 |
| -4% | -1% | O=C(Cn1nnc2ccccc2c1=O)NCCc1ccc(Cl)cc1Cl |
| 0% | -3% | Cn1ncc(C#N)c1NC(=O)C1CC(c2ccc(Cl)c(Cl)c2)=NO1 (stereo not given) |
| nt | 2% | CC(=O)N1CCN(S(=O)(=O)c2cccc(C(=O)NNC(=O)Cn3nc(C)cc3C)c2)CC1 |
| nt | 0% | CCC(=O)c1ccc(OCC(=O)OCC(=O)N(CCC#N)c2ccc3c(c2)OCCO3)cc1 |
| nt | -7% | COc1cccc(N2CCN(C(=O)C3CCN(S(=O)(=O)c4cccc5nonc45)CC3)CC2)c1 |
| 2% | -2% | CSc1ccc(S(=O)(=O)Nc2ccc(NC(C)=O)cc2)cc1 |
| nt | -6% | CCOc1ccc(CCNC(=O)c2cc3c(=O)[nH]c4ccc(C)cc4c3s2)cc1OCC |

Individual results from the results shown.
CC1(C)CC(=O)C2=C(C1)NC(=O)NC2c1ccc([N+](=O)[O-])cc1 (stereo not given) – KAT2A inh: -1%
N#Cc1ccsc1NC(=O)CSc1ncnc2ccccc12 – N370S GC: 26%

Next part
| N370S GC | KAT2A inh | SMILES |
| --- | --- | --- |
| 6% | -3% | COc1cccc(C(=O)NCC(=O)NCc2cc(=O)n(C)c(=O)n2C)c1 |
| -1% | -3% | CCc1c(O)c(/C(C)=N\O)c(=O)n(-c2ccccc2)c1-c1ccccc1 |
| -1% | 0% | CC(=O)N[C@H]1[C@H](Oc2ccc3c(c2)CCC2C3CC[C@]3(C)C(=O)CCC23)O[C@H](CO)[C@@H](O)[C@@H]1O (stereo not given in full) |
| 7% | 1% | COc1ccc(CCNC(=O)CNC(=O)Cn2ccc3ccccc3c2=O)cc1OC |
| 28% | -6% | Cc1ccc(NC(=O)CN(C)CC(=O)Nc2sc3c(c2C(N)=O)CCC3)cc1 |
| -1% | -5% | Cc1cccc(C(=O)N2CCN(S(=O)(=O)N3CCCCCC3)CC2)c1 |
| -7% | -7% | O=C(c1ccc(F)cc1)N1CCN(c2ccc([N+](=O)[O-])cc2-n2cccc2)CC1 |
| -24% | -8% | O=C(/C=C\c1ccccc1)NCC(=O)N/N=C/c1ccc(O)cc1O |
| nt | 4% | COc1cc(OC)cc(C(=O)Nc2ccn(C)n2)c1 |
| -18% | -8% | O=C(COc1nc2ccccc2nc1N1CCOCC1)N1CCc2ccccc21 |
| nt | 2% | CCOc1ccc2nc(NC(=O)c3nc(SC)ncc3Cl)sc2c1 |
| 13% | -1% | O=C(OC[C@@H]1CCCN2CCCC[C@H]12)c1cc2ccccc2oc1=O |
| -6% | -10% | N#CCc1c(C#N)c(N)nc(N2CCCC(CO)C2)c1C#N (stereo not given) |
| nt | 0% | CCc1ccccc1NC(=O)CSc1nccn1C |
| -1% | -2% | COc1ccc2nc(N(Cc3ccccc3)C(=O)CCNC(C)=O)sc2c1 |
| nt | -3% | O=C1COc2ccc(C(=O)COC(=O)CCOc3ccccc3)cc2N1 |
| -1% | -8% | CC1CCN(C(=O)CSc2nnc(CNC(=O)c3ccc(F)cc3)o2)CC1 |
| -1% | 10% | OCCN(CCO)c1ncnc2c1sc1nc(N3CCOCC3)c3c(c12)CCCC3 |
| -16% | -6% | COC(=O)[C@H](Cc1c[nH]c2ccccc12)NC(=O)NCc1ccccc1 |
| 3% | -16% | Cn1cc(CCC(=O)NCc2ccc3c(c2)OCO3)c2ccccc21 |
| -11% | 1% | COc1ccc(Cn2cccc(NC(=O)Nc3cccc(C#N)c3)c2=O)cc1 |
| ? | -10% | O=C(c1ccco1)N1N=C(c2cccs2)CC1c1ccc(F)cc1 (stereo not given) |
| -13% | -5% | CS(=O)(=O)N1CCN(c2cnn(-c3ccccc3)c(=O)c2Cl)CC1 |
| -4% | 3% | Cc1ccccc1S(=O)(=O)N1CCN(C)CC1 |
| nt | -2% | Cc1cc(C(F)F)n2nc(C(=O)Nc3cc(Cl)ccc3C)nc2n1 |
| -18% | -5% | COCc1cc(C)n(CC(=O)NC(C)c2ccccc2)c(=O)c1C#N (stereo not given) |
| 4% | 2% | O/N=C(/CN(O)/C=C1/C=CC=N1)c1cccs1 |
| 4% | -12% | Cc1ccc(N=C(NO)c2cnccc2C(F)(F)F)c(C)c1 |
| 8% | -15% | CCc1ccc(N(CC(=O)NC(C)C)C(=O)CCC(=O)Nc2nccs2)cc1 |
| -3% | 2% | CCOC(=O)C1CCN(C(=O)Cn2cc3c(n2)CCC(C)C3)CC1 (stereo not given) |
| 5% | 1% | CC(C)c1cccc(C(C)C)c1NC(=O)CN1C(=O)NC2(CCCC2)C1=O |
| -7% | -6% | Cc1ccc(S(=O)(=O)N2CCCCC2)cc1NC(=O)c1cnccn1 |
| -16% | 2% | CC(Oc1ccccc1F)C(=O)NNC(=O)c1ccc(F)c(S(=O)(=O)N2CCOCC2)c1 (stereo not given) |
| nt | -5% | Cc1cccc(C)c1NC(=O)CNC(=O)C1CCCN(C(=O)c2ccc(Cl)cc2)C1 (stereo not given) |
| -6% | -2% | CN(C)/C=N/C1=C(C#N)C(c2ccc(Br)cc2)c2ccc3ccccc3c2O1 (stereo not given) |
| 1% | 3% | O=c1cc(CN2CCN(Cc3ccccc3)CC2)c2cc(Cl)ccc2o1 |
| 3% | -17% | Cc1ccc(NC(=O)CN2C(=O)N/C(=C\c3cccnc3)C2=O)cc1 |
| -20% | -7% | CCC(C)(C)NC(=O)C(c1ccc(OC)cc1)N(C(=O)CCC(=O)Nc1cc(C)on1)c1ccc(F)cc1 (stereo not given) |
| -9% | -3% | CN(C)CCCN(C(=O)CCc1ccccc1)c1nc2ccc(Br)cc2s1 |
| -4% | -5% | COc1ccc(C)cc1NC(=O)CSc1nnc(-c2ccc(OC)c(OC)c2)n1N |
| -3% | -10% | O=C(CCN1C(=O)c2ccccc2C1=O)Oc1ccc2ccccc2c1 |
| 5% | -3% | CN(C)c1ccc(C(CC(=O)c2ccccc2)C2CCCCC2=O)cc1 (stereo not given) |
| -4% | -4%[0.501 µM] | O=C(c1ccc(Cl)nc1)N1CCc2ccccc2C1 |
| nt | 0% | O=C(NCC(=O)N1CC=C(c2ccccc2)CC1)c1ccc(F)cc1 |
| -6% | 0% | O=C1Cc2ccccc2C(c2ccc(Cl)cc2)N1 (stereo not given) |
| 6% | -16% | CCC(C)NS(=O)(=O)c1ccc(S(=O)(=O)N(CCc2ccc(OC)c(OC)c2)Cc2cccs2)cc1 (stereo not given) |
| -2% | -6% | NC(=O)c1oc2ccccc2c1NC(=O)C1CC(=O)N(c2ccccc2)C1 (stereo not given) |
| 3% | 0% | CC1(C)CC(NC(=O)C2CCN(S(=O)(=O)c3ccc(F)cc3)CC2)CC(C)(C)N1 |
| -3% | -29% | COc1cccc2cc(-c3csc(NC(=O)CCC(=O)NCCCN4CCC(C)CC4)n3)c(=O)oc12 |
| -2% | -5% | O=C(c1cc(C2CC2)nn1-c1ccccc1)N1CCN(c2ccccn2)CC1 |
| 2% | -1% | CC(=O)N1N=C(c2ccc(C)cc2)CC1c1ccco1 (stereo not given) |
| -16% | -8% | COc1ccc(C(=O)c2coc3ccc(O)c(CN4CCCCC4)c23)cc1 |

Molecules from the list above with an aryl methoxy group:
| N370S GC | KAT2A inh | SMILES |
| --- | --- | --- |
| -16% | -4% | COc1ccc(C2/C(=C(/O)c3ccc4c(c3)CC(C)O4)C(=O)C(=O)N2CCCn2ccnc2)cc1 (stereo not given) |
| 6% | -6% | COc1ccc(N(C(=O)Cn2nnc3ccccc32)C(C(=O)NCc2ccco2)c2cccnc2)cc1 (stereo not given) |
| 4% | -2% | COc1ccc(NC(=O)COC(=O)c2ccco2)c([N+](=O)[O-])c1 |
| 7% | 2% | COCCN1C(=O)c2oc3ccccc3c(=O)c2C1c1ccc(OC)c(OC)c1 (stereo not given) |
| -1% | -2% | COc1ccc(Cl)cc1NC(=O)CNc1ccccc1CN(C)C1CCCCC1 |
| nt | -7% | COc1cccc(N2CCN(C(=O)C3CCN(S(=O)(=O)c4cccc5nonc45)CC3)CC2)c1 |
| 6% | -3% | COc1cccc(C(=O)NCC(=O)NCc2cc(=O)n(C)c(=O)n2C)c1 |
| 7% | 1% | COc1ccc(CCNC(=O)CNC(=O)Cn2ccc3ccccc3c2=O)cc1OC |
| nt | 4% | COc1cc(OC)cc(C(=O)Nc2ccn(C)n2)c1 |
| -1% | -2% | COc1ccc2nc(N(Cc3ccccc3)C(=O)CCNC(C)=O)sc2c1 |
| -11% | 1% | COc1ccc(Cn2cccc(NC(=O)Nc3cccc(C#N)c3)c2=O)cc1 |
| -20% | -7% | CCC(C)(C)NC(=O)C(c1ccc(OC)cc1)N(C(=O)CCC(=O)Nc1cc(C)on1)c1ccc(F)cc1 (stereo not given) |
| -4% | -5% | COc1ccc(C)cc1NC(=O)CSc1nnc(-c2ccc(OC)c(OC)c2)n1N |
| 6% | -16% | CCC(C)NS(=O)(=O)c1ccc(S(=O)(=O)N(CCc2ccc(OC)c(OC)c2)Cc2cccs2)cc1 (stereo not given) |
| -3% | -29% | COc1cccc2cc(-c3csc(NC(=O)CCC(=O)NCCCN4CCC(C)CC4)n3)c(=O)oc12 |
| -16% | -8% | COc1ccc(C(=O)c2coc3ccc(O)c(CN4CCCCC4)c23)cc1 |

Only part of the results is shown, and most or all hits are left out here.
